Compound activity: PubChem BioAssay, Broad Institute
T cruzi inh = blocks replication of Trypanosoma cruzi; 1.4% of 300,000 active; inhibition, % (no concentration beside the values); AID 1885; T. cruzi beta-gal in NIH3T3, luminescence, 90 h;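 active = mean inhibition across valid replicates above about 55%, limit read from the data; inconclusive = mean below that limit but half or more replicates reach it; inactive = mean below it, under half of replicates reach it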;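 note: signal also drops with host cell toxicity which is not excluded here; 0% = plate median of DMSO wells and 100% = zero luminescence signal; higher percent means less beta-gal luminescence so fewer parasites; stock transfer was 50 nL into about 50 µL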
Calb FLC = C. albicans growth modulation with fluconazole; C. albicans CaCi-2 (fluconazole-resistant clinical isolate) + fluconazole, Alamar Blue growth, 48 h; growth inhibition, % (no concentration beside the values); 0.57% of 300,000 active; AID 1979;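 active = most replicates above 75%; inconclusive = exactly half above 75%; inactive = most below 75%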;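 note: all wells also contain fluconazole at 8 µg/ml as a sub-toxic cotreatment; 0% = median of DMSO wells and 100% = median of geldanamycin control wells; wells of about 8 µL received 7.5 nL stock; the first replicate is given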
ALR inh = blocks human ALR sulfhydryl oxidase activity. P55789. inhibition, % (test concentration not listed). 3.8% of 290,000 active. AID 485317. purified ALR, DTT oxidation, H2O2 HRP-luminol luminescence;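 active = mean and each replicate at 75% or more; inconclusive = only one of the two met; inactive = neither met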;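 note: stock transfer was 7.5 nL into about 7.5 µL; 0% = neutral wells and 100% = wells with inactivated enzyme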
Target sequence (P55789 whole entry, looked up): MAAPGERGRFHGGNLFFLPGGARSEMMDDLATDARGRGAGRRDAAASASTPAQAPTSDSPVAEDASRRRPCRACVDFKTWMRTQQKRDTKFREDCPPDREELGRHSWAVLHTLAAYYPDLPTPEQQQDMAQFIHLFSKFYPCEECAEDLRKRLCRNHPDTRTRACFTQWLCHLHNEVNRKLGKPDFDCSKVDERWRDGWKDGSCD
RanGTP-Imp inh = disruptors of Ran-importin-beta complex formation – biochemical, FRET, CFP-Ran, YFP-importin-beta, homogeneous, primary screen; cell-free CFP-Ran/YFP-importin-beta FRET ratio; inhibition, % (concentration not given with the values); 1.1% of 300,000 active; AID 2216;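 active = most replicates above 15%; inconclusive = exactly half above 15%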;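 note: 0% = DMSO wells and 100% = Ran loaded with GDP instead of GTP; wells of about 40 µL received 100 nL stock; the first replicate is given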
Beta apoptosis = blocks beta cell apoptosis; INS-1E cytokine-induced death, ATP luminescence, 48 h; percent of positive-control rescue, neutral wells zero; protection from apoptosis, % (no concentration beside the values); 0.8% of 300,000 active;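 active = all replicates at 75% or more, or half of them and the mean; inconclusive = half reach 75% but not the mean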;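 note: 0% = cytokine-treated negative control wells and 100% = positive control rescue; higher means more ATP so stronger rescue from cytokine killing; wells of about 40 µL received 100 nL stock; the first replicate is given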
FGF22 binding = binders of recombinant human FGF22 by thermal shift | Q9HCT0 | SYPRO orange fluorescence; percent of sucrose octasulfate shift, DMSO zero | calls only at 9.99 µM | 1.5% of 340,000 active | AID 651658;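 active = melting point raised past a set limit in the mean and every replicate; inconclusive = no clear call; three in four hits are not shown here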
Target sequence (Q9HCT0 whole entry, looked up): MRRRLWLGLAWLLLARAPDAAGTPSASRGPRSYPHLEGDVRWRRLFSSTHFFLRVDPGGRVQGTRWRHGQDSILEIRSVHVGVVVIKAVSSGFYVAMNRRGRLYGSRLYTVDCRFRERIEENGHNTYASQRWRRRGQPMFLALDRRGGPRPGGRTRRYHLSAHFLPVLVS
MLL AF4-AF9 inh = blocks AF4 peptide binding to human AF9; AID 651704; inhibition, % at 10 µM; 0.47% of 350,000 active; AlphaScreen, biotin-AF4 peptide binding to FLAG-AF9;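 active = every replicate reaching a set inhibition limit, whatever the replicate mean, cut at about 25% in these data; inconclusive = mean inhibition reaches that limit but some replicates miss it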;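 note: 0% = plate neutral control median and 100% = total signal loss; the record names both 10 and 1 µM as test concentration; the first replicate is given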
Target sequence (P42568 whole entry, looked up): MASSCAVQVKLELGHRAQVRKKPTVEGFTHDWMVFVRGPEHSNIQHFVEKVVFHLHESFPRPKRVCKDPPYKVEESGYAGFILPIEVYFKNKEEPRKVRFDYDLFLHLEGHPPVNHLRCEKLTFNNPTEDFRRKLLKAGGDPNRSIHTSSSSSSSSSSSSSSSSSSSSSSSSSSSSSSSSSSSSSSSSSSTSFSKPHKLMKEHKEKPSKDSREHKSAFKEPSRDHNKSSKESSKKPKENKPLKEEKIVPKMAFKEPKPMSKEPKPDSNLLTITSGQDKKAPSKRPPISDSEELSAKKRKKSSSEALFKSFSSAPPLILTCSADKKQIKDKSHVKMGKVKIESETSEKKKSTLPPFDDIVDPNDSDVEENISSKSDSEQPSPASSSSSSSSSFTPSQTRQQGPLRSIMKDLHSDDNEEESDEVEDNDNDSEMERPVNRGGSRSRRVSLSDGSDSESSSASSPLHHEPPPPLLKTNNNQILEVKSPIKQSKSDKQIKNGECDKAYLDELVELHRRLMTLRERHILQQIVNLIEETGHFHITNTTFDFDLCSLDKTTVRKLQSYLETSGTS
rRNA inh HTS = inhibitors of bacterial rRNA selective over humanized ribosomes; E. coli WT GFP vs humanized-ribosome RFP mutants, fluorescence, 24 h; hits give low values; DMSO median 0, no signal -100; 1.6% of 350,000 active; AID 720706; GFP signal change (wild-type ribosome), % (test concentration not listed);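 active = significant combined selectivity score with lowered wild-type GFP, culture density cut under 30%, mutant RFP and density less affected; inactive = any of these conditions unmet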; note: one replicate is shown; some compounds called inactive have numbers as strong as hits
rRNA inh HTS OD600 = second read-out of rRNA inh HTS, no call of its own (marks repeat the call); OD600 change, %; measured here: OD600 growth;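 optical density of the mix in the first replicate; 0 = DMSO median and -100 = no signal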
rRNA inh HTS RFP = also measured in rRNA inh HTS; calls as there; RFP signal change, %; measured here: RFP humanized mutant strains;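 first replicate; 0 = DMSO median and -100 = no signal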
Starred values were filed as active, the others as inactive; i = inactive; ? = inconclusive; . = no result given. Some of the compounds tested; rates above refer to the full screens.

Sequence of screens: T cruzi inh, Calb FLC, ALR inh, RanGTP-Imp inh, Beta apoptosis, FGF22 binding, MLL AF4-AF9 inh, rRNA inh HTS, rRNA inh HTS OD600, rRNA inh HTS RFP
1) Cc1ccccc1Cn1nc(C)c(NC(=O)c2noc3c2CC(C(C)(C)C)CC3)c1C (stereo not given)
    23.0, -10.3, -3.8, -1.7, 0.7, ., ., ., ., .
2) COCCN(C(=O)c1ccc(N2CCCC2=O)cc1)c1c(N)n(CC(C)C)c(=O)[nH]c1=O
    ., ., 0.2, ., 4.2, i, -1.2, 12.9, 17.4, -1.4
3) COc1ccc(CCNC(=O)CN2CCCc3ccccc32)cc1OC
    -6.1, -6.3, 54.4, -2.4, 0.3, ., ., ., ., .
4) CC(Oc1ccc(F)cc1)C(=O)Nc1ccc(N2CCOCC2)cc1N1CCOCC1 (stereo not given)
    -2.5, 6.3, ?, -3.9, 2.9, i, 2.3, 1.5, 11.4, 1.7
5) Cc1ccc(CNS(=O)(=O)c2ccc([N+](=O)[O-])cc2)cc1
    0.7, 3.3, 8.2, -2.6, -5.9, i, -3.3, 16.5, 12.2, 0.9
6) CC1CN(C(=O)Cc2ccc(-c3ccccc3)cc2)CC(C)O1 (stereo not given)
    -11.8, -5.9, -7.0, -0.4, 2.4, i, 7.0, -14.7, -15.8, 15.1
7) O=C(NCCCn1ccnc1)c1cccc(Cl)c1
    -9.8, -2.2, ., 2.4, 4.6, i, -0.5, -2.3, 4.1, -4.5
8) CC(NC(=O)Nc1ccccc1F)C(C)(C)C (stereo not given)
    -23.6, 58.4*, ., 3.9, -9.2, i, 0.7, 11.1, 6.6, 1.0
9) CCNC(=S)NNc1nc(N2CCCCC2)nc(N2CCOCC2)n1
    -0.4, ?, 6.2, 0.0, ., i, 2.6, 3.6, 0.2, 1.1
10) O=C(CN1CCOCC1)NNC(=S)Nc1ccccc1
    3.6, -1.0, 55.7, 1.0, 6.5, i, -3.4, 17.5, 22.9, -1.5
11) O=C(CCc1ccccc1)c1ccc2c(c1)OCCCO2
    -6.9, 0.6, 0.8, 0.6, -7.4, ., ., ., ., .
12) CCOc1ccc(C(=O)NC(=S)Nc2cccc(NC(=O)c3ccco3)c2)cc1[N+](=O)[O-]
    16.8, 19.2, ., -0.6, 4.8, i, -5.5, -14.9, -8.9, 15.2
13) CC1CCN(S(=O)(=O)c2ccc(S(=O)(=O)NCc3ccccc3)cc2)CC1
    7.0, -11.6, -6.2, ?, 0.5, ., ., ., ., .
14) CCCCc1cc(=O)oc2cc(OCC(=O)N(CC)CC)c(Cl)cc12
    14.7, 3.3, -2.4, -2.3, -1.2, i, -1.0, -10.6, -7.4, -1.8
15) CCN(C(=O)Cn1c(Cl)nc2c1c(=O)n(C)c(=O)n2C)C1CCCCC1
    ., ., 3.8, ., -1.5, i, -1.8, ., ., .
16) CCOc1ccc(OCC)c(NC(=O)CNS(=O)(=O)c2cccs2)c1
    8.1, 3.6, -6.2, 0.6, ., ., ., ., ., .
17) O=C1C2C3C=CC(C3)C2C(=O)N1c1cccnc1 (stereo not given)
    -9.6, -5.6, 2.3, -1.9, -8.6, i, 2.8, -6.3, -4.2, -7.2
18) Cc1cccc(C(=O)NC(C)C(=O)NC(c2nc3ccccc3[nH]2)C(C)C)c1 (stereo not given)
    ., ., 2.1, ., -5.5, i, -0.7, 3.3, 13.2, 2.7
19) CCOC(=O)N1CCN(C(=O)/C(=C/c2cccs2)NC(=O)c2cccs2)CC1
    -10.3, -8.3, 13.9, -3.9, 6.3, i, 0.2, 16.2, 12.8, -1.5
20) COc1cnc(SCC(=O)O)[nH]c1=O
    -17.1, -15.1, -5.5, -1.4, -9.3, ., ., ., ., .
21) COc1cc(C=C2C(=O)c3ccccc3C2=O)cc(OC)c1OC
    14.3, 9.2, 97.4*, -1.9, 8.0, i, -0.1, 16.8, 3.2, 11.4
22) O=C(NCC(c1ccco1)N1CCc2ccccc2C1)C(=O)Nc1ccccc1F (stereo not given)
    23.6, 5.8, -2.3, 1.2, 4.8, ., 0.5, 0.9, -27.0, 2.7
23) Cc1c(Cl)cccc1NC(=O)NCc1cccnc1
    -9.6, -13.1, -28.2, 2.2, -10.6, i, -3.9, 5.9, 8.4, 2.3
24) CCCCCCCOC(=O)c1ccc(OC(=O)c2cccnc2)cc1
    1.9, 1.4, 45.9, -3.8, 1.5, ., ., ., ., .
25) Cc1ccc(C(=O)N(C)CC(=O)Nc2cccc(C)c2C)o1
    -2.1, 0.7, -10.9, 7.9, 0.2, i, 0.5, 3.0, 7.4, -1.8
26) O=C(NCCO)c1ccc2[nH]c3ccccc3c2c1
    5.4, 0.7, -12.6, 6.7, -3.0, ., 3.2, ., ., .
27) CCC1Sc2ccc(S(=O)(=O)CCC(=O)Nc3ccc(C(=O)OC)cc3)cc2NC1=O (stereo not given)
    -7.9, -2.6, ., -1.1, -3.3, i, -1.7, 4.3, -18.2, 1.5
28) Cc1ccc(C(C)C)cc1OCCOCCN1CCCC1
    44.4, -6.2, -9.2, 1.4, -3.1, ., ., ., ., .
29) C=CCOC(=O)C1=C(C)N=C2SCCC(=O)N2C1/C=C/c1ccccc1 (stereo not given)
    14.6, 16.4, -11.8, 0.2, 1.2, i, -2.5, 6.0, 0.4, 8.0
30) Cc1ccc(C(=O)n2c3ccccc3c3ccccc32)cc1
    -8.9, 2.7, 4.6, -1.8, 16.6, ., ., ., ., .

Of the compounds above, these have a nitro group on carbon.
Sequence of screens: T cruzi inh, Calb FLC, ALR inh, RanGTP-Imp inh, Beta apoptosis, FGF22 binding, MLL AF4-AF9 inh, rRNA inh HTS, rRNA inh HTS OD600, rRNA inh HTS RFP
5) Cc1ccc(CNS(=O)(=O)c2ccc([N+](=O)[O-])cc2)cc1
    0.7, 3.3, 8.2, -2.6, -5.9, i, -3.3, 16.5, 12.2, 0.9
12) CCOc1ccc(C(=O)NC(=S)Nc2cccc(NC(=O)c3ccco3)c2)cc1[N+](=O)[O-]
    16.8, 19.2, ., -0.6, 4.8, i, -5.5, -14.9, -8.9, 15.2

Following part.
Sequence of screens: T cruzi inh, Calb FLC, ALR inh, RanGTP-Imp inh, Beta apoptosis, FGF22 binding, MLL AF4-AF9 inh, rRNA inh HTS, rRNA inh HTS OD600, rRNA inh HTS RFP
31) Cc1cc(=O)n2nc(-c3ccccc3)sc2n1
    -6.7, -15.4, -10.8, 6.3, 7.0, ., ., ., ., .
32) O=C(NC1CCCC1)C1c2ccccc2C(=O)N1CCCN1CCOCC1 (stereo not given)
    -7.0, -1.4, ., -1.3, -5.1, i, -0.6, 10.2, 13.7, -1.3
33) Cc1cc(=O)[nH]c(N/N=C/c2ccccc2C(F)(F)F)n1
    5.1, -5.2, -2.7, 2.9, 1.4, i, -0.7, 11.0, 11.9, -6.3
34) CC(C)[C@H]1COCCS(=O)(=O)N1Cc1ccccc1
    18.0, 10.7, 0.2, 3.9, 3.5, i, 2.7, 5.5, -0.4, -2.6
35) CCC(=O)Nc1ccc(C(=O)NNC(=O)c2ccccc2)cc1
    -3.5, 31.5, -1.7, 2.4, 1.7, i, -3.6, 4.6, 7.2, 0.0
36) CCCOc1ccc(CSc2n[nH]c(C)n2)cc1
    5.1, -8.1, 5.6, 0.2, -1.9, i, ., -10.4, 5.9, 2.6
37) NC(=O)c1sc2cc(C(F)(F)F)cnc2c1-c1ccccc1
    -4.0, -26.2, -2.2, ?, -6.4, i, -0.1, -2.4, -15.1, -4.9
38) COC(=O)NC(NC(=S)Nc1cccc(C)c1)C(Cl)(Cl)Cl (stereo not given)
    11.7, -1.3, 8.1, 1.8, 1.5, i, -1.8, -26.0, -32.6, 15.3
39) COC(=O)[C@@]1(Cc2ccc(F)cc2)[C@H]2c3cc(C(=O)N(C)C)n(Cc4c(CO)[nH]cc(C)c4=O)c3C[C@H]2CN1C(=O)c1ccccc1
    ., ., 40.8, ., -0.2, i, 0.3, 8.7, 11.9, 10.9
40) CCc1ccc(-c2csc(-c3c[nH]c4ccccc34)n2)cc1
    -15.8, -3.4, -11.0, -4.4, 1.9, ., ., ., ., .
41) CCOc1ccc(N(CC(=O)NCc2ccc(C)cc2)S(=O)(=O)c2c(C)[nH]c(=O)[nH]c2=O)cc1
    -7.8, -1.3, -3.5, -1.7, -1.7, ., ., ., ., .
42) COc1ccc(OC)c(-n2c(=S)[nH]c3cc(C(=O)N4CCN(c5ccccc5)CC4)ccc3c2=O)c1
    5.8, 4.8, -8.6, -0.5, -2.5, i, 1.4, 5.8, -3.0, 2.6
43) CC(=O)N1CCN(c2ccc(NC(=O)c3ccccc3)cc2)CC1
    2.0, 0.4, 34.0, 0.0, 0.0, i, -1.2, 9.7, 12.9, -3.8
44) COc1ccc(/C=C/c2nc(-c3ccccc3O)n(-c3ccccc3)n2)cc1
    -1.7, 2.0, -2.5, -2.5, -0.3, i, 0.3, -9.0, -2.8, 1.9
45) CCOc1ccc(S(=O)(=O)N(C)C2CCCCC2)cc1
    3.7, -1.2, 2.2, 1.8, ., i, -4.7, -19.2, -27.0, -1.5
46) CCC(C)NC(=O)CC(c1ccccc1)c1cc(C)ccc1O (stereo not given)
    6.1, 4.7, 17.7, 0.4, 1.6, i, -0.6, -3.1, -0.1, -1.4
47) Cc1ccc(S(=O)(=O)Nc2cccc(-c3cn4ccsc4n3)c2)cc1
    -20.0, 3.0, 3.4, -0.6, -0.6, ., ., ., ., .
48) CCc1ccc(N2CC(C(=O)Nc3ccc(C)c(S(=O)(=O)N4CCOCC4)c3)CC2=O)cc1 (stereo not given)
    0.8, -4.9, -23.4, 1.9, -0.8, ., ., ., ., .
49) CCOC(=O)C1CCN(C(=O)CSCCSCC(=O)N2CCC(C(=O)OCC)CC2)CC1
    10.1, -6.7, -3.6, 3.6, -8.4, ., ., ., ., .

Exported tab-delimited: part of the list above.
item	smiles	T cruzi inh	Calb FLC	ALR inh	RanGTP-Imp inh	Beta apoptosis	FGF22 binding	MLL AF4-AF9 inh	rRNA inh HTS	rRNA inh HTS OD600	rRNA inh HTS RFP
46	CCC(C)NC(=O)CC(c1ccccc1)c1cc(C)ccc1O (stereo not given)	6.1	4.7	17.7	0.4	1.6	i	-0.6	-3.1	-0.1	-1.4
47	Cc1ccc(S(=O)(=O)Nc2cccc(-c3cn4ccsc4n3)c2)cc1	-20.0	3.0	3.4	-0.6	-0.6	.	.	.	.	.
